HEK293 viab = GF-AFC viability counterscreen for inhibitors of alpha-synuclein gene (SNCA) expression | HEK-293-SNCA-luc viability, GF-AFC fluorescence, 24 h | Potency, µM (series often up to 57.1 µM), for inactives: at the highest dose activity change, negative = cytotoxicity, actives largely listed as cytotoxic | hit rate 0.12% among 150,000 | AID 1671193, 2021;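 further: 0% = DMSO-treated cells and -100% = medium-only wells without cells; nearly all actives have a fitted effect of over 30% in size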
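Cytotoxicity counterscreen: after 24 h compound treatment of genome-edited SNCA-luciferase HEK-293 cells, live-cell protease substrate GF-AFC read by fluorescence after 30 min; activity scaled between DMSO (0%) and medium-only (-100%), curves Hill-fitted.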
3T3 cytotox = Cytotoxic Profiling in NIH 3T3 Cell Line of Diverse Libraries Using Quantitative High-Throughput Screening; NIH 3T3 viability, CellTiter-Glo ATP luminescence, 48-72 h; hit rate 4.3% among 94,000; Potency, µM (titrated, usually from 96.7 µM), inactives show top-dose activity change, negative = cytotoxicity, usual class: inhibitors; further: nearly all actives have a fitted effect of over 55% in size
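Cytotoxicity was measured by CellTiter-Glo ATP luminescence after 48 or 72 h compound exposure at 37 °C. Mouse NIH 3T3 fibroblasts were seeded at 400 cells/well and dosed by 23 nL pin transfer.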
HEK293 tox = Cytotoxic Profiling in HEK 293 Cell Line of Diverse Libraries Using Quantitative High-Throughput Screening. hit rate 6.6% among 94,000. Potency, µM (series often up to 115 µM), inactives show top-dose activity change, negative = cytotoxicity, usual class: inhibitors. HEK 293 viability, ATP luminescence (CellTiter-Glo), 48-72 h; further: nearly all actives have a fitted effect of over 60% in size
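250 HEK 293 cells/well; compound by pintool; incubated 48 or 72 hr at 37 degree Celsius; CellTiter-Glo added, 10 min RT, luminescence imaged.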
FLuc inh = Firefly luciferase inhibition profiling of diverse chemical library using quantitative high-throughput screening | Luciferin 4-monooxygenase (Photinus pyralis), P08659 | purified P. pyralis luciferase, luminescence, biochemical | Potency, µM (doses to about 115 µM), for inactives: at the top dose activity change, negative = inhibition, most hits filed as inhibitors | hit rate 2.5% among 76,000; further: nearly all actives have a fitted effect of over 65% in size
Target sequence (P08659 whole entry, looked up): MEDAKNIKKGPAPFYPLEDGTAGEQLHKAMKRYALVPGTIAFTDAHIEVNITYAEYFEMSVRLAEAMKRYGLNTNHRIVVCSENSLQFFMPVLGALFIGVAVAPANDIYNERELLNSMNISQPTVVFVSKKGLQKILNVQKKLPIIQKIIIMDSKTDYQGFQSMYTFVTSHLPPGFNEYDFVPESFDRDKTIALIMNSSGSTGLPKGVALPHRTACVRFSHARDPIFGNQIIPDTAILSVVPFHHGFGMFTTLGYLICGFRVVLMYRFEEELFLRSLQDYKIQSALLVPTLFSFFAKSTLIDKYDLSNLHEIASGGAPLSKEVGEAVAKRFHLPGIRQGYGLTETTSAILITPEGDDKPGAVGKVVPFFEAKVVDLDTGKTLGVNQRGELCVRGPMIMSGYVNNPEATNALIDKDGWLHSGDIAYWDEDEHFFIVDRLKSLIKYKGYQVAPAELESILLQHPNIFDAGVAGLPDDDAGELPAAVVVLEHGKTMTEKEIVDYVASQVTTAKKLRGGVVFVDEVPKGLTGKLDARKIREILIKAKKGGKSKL
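Purified P. pyralis luciferase (10nM final) in 50mM Tris acetate pH 7.5, 10mM Mg acetate, 0.01% Tween-20, 0.05% BSA with 10uM D-luciferin and 10uM ATP. Compounds titrated qHTS. Luminescence imaged on CCD.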
GPT2 inhibitor = Primary qHTS assay for inhibitors of Glutamate pyruvate transaminase 2 (GPT2) | Alanine aminotransferase 2 (Homo sapiens), Q8TD30 | Recombinant GPT2, coupled pyruvate oxidase/HRP Amplex Red fluorescence | Potency, µM (highest dose often 57.7 µM), for inactives: at the top dose activity change, negative = inhibition, most hits filed as inhibitors | hit rate 0.25% among 100,000 | AID 1671188, 2021; further: nearly all actives have a fitted effect of over 60% in size; many of its hits are not listed in these tables
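Recombinant GPT2 (10ng/uL) with 250uM a-KG and 2mM L-alanine, 30 min at room temperature, in HEPES pH 7.5 buffer. Pyruvate detected by pyruvate oxidase/HRP/Amplex Red fluorescence after 30 min in the dark; AOA (50uM) as positive control.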
SNCA expr inhib = Primary qHTS assay for inhibitors of alpha-synuclein gene (SNCA) expression. HEK-293 SNCA-luciferase knock-in, luminescence, 24 h. Potency, µM (series often up to 57.2 µM), inactives show at the highest dose activity change, negative = inhibition, usual class: inhibitors. AID 1671194, 2021. hit rate 0.17% among 140,000;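 further: plate controls were DMSO cells for no effect and cell-free wells for full effect; nearly all actives have a fitted effect of over 45% in size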
Active calls of the source: *; i = inactive; ? = inconclusive; · = not tested or not shown; [ ] = another dose, or the depositor's remark. The call rests on the fitted dose curve; in most records, active means well fitted curve in the direction sought with a large enough effect; inconclusive means small, poorly fitted or top-dose-only effect, or another doubt; inactive means no such curve, though single readings can be large; an effect the other way counts as inactive or inconclusive. Unless noted, on the % scale 0 is the no-effect control and ±100 the full control effect; potency means the concentration at half of the fitted maximal effect.

SMILES,HEK293 viab,3T3 cytotox,HEK293 tox,FLuc inh,GPT2 inhibitor,SNCA expr inhib
Cc1ccc(-n2c(=O)c3c4c(sc3n(Cc3ccccc3C)c2=O)CCC4)cc1C,3%,·,·,·,·,-14%
CC(NC(=O)C(=O)Nc1c2c(nn1-c1ccc(F)cc1)CSC2)c1ccccc1 (stereo not given),-5%,·,·,·,·,-21%
Cc1ccc(O)c(NC(=O)CCS(=O)(=O)c2nc(-c3ccc4c(c3)OCO4)cc(C(F)(F)F)n2)c1,16%,·,·,·,·,-18%
COc1ccc([C@@H](NC(=O)c2scc3c2CCCC3)C2CC(O)C2)cn1 (stereo not given in full),-4%,-27%,?,-6%,4%[11.5 µM],-24%
CN1C(=O)C2(CCN(Cc3ccc(C#N)cc3)C2)c2ccccc21 (stereo not given),?,?,?,-2%[172 µM],i,-12%[87.6 µM]
COc1ccc(C2C(C(=O)Nc3cccnc3)=C(C)Nc3nc(SCc4ccccc4)nn32)cc1 (stereo not given),3%,·,·,·,·,19%
O=C(Nc1ncc(-c2ccccc2)c2c1OCC2)c1cn[nH]c1,12%[87.6 µM],?,0%[172 µM],-17%[172 µM],-5%[88.5 µM],-15%[87.6 µM]
CN1[C@@H]2CC(OC(=O)[C@H](CO)c3ccccc3)C[C@H]1[C@@H]1O[C@@H]12 (stereo not given in full),38%[23.9 µM],·,·,·,4%,19%[25.6 µM]
COc1ccc(Cn2ccc3nc(C)c(C(=O)Nc4ccc(OC)cc4OC)cc3c2=O)cc1,11%,·,·,·,·,-1%
CC(C)Cn1c(=O)c2ccccc2n2c(CCC(=O)NCc3ccccc3Cl)nnc12,6%,·,·,·,·,-30%
CCN1CCC(N2C[C@@H](COC)[C@H](c3nc(C)no3)C2)CC1,6%,-6%,-11%,3%,i,-9%
Cc1ccc(CCNC(=O)C2CC(=O)N(CCc3ccccc3)C2)cc1 (stereo not given),-1%,·,·,·,·,?
COc1ccc(-c2nc(CCNC(=O)c3c(F)cccc3Cl)cs2)cc1,4%,·,·,·,·,-8%
O=C(c1ccc(F)cc1)N1CCC(c2nc(-c3ccc(S(=O)(=O)N4CCCC4)cc3)no2)CC1,10%,·,·,·,·,-8%
COc1ccc(C(=O)N2CCC3(CC2)C(=O)Nc2ccccc23)cc1,-6%,2%,-22%,·,i,-34%
Cc1cc(C)cc(-n2ccnc(NCc3ccc(F)cc3)c2=O)c1,-2%,·,·,·,·,-1%

Molecules listed so far containing a Cl atom, in the order listed:
SMILES,HEK293 viab,3T3 cytotox,HEK293 tox,FLuc inh,GPT2 inhibitor,SNCA expr inhib
CC(C)Cn1c(=O)c2ccccc2n2c(CCC(=O)NCc3ccccc3Cl)nnc12,6%,·,·,·,·,-30%
COc1ccc(-c2nc(CCNC(=O)c3c(F)cccc3Cl)cs2)cc1,4%,·,·,·,·,-8%

Four compounds from above, ordered by SMILES length, low to high:
SMILES,HEK293 viab,3T3 cytotox,HEK293 tox,FLuc inh,GPT2 inhibitor,SNCA expr inhib
COc1ccc(C(=O)N2CCC3(CC2)C(=O)Nc2ccccc23)cc1,-6%,2%,-22%,·,i,-34%
CCN1CCC(N2C[C@@H](COC)[C@H](c3nc(C)no3)C2)CC1,6%,-6%,-11%,3%,i,-9%
CC(C)Cn1c(=O)c2ccccc2n2c(CCC(=O)NCc3ccccc3Cl)nnc12,6%,·,·,·,·,-30%
COc1ccc(Cn2ccc3nc(C)c(C(=O)Nc4ccc(OC)cc4OC)cc3c2=O)cc1,11%,·,·,·,·,-1%

A second format for some results above:
> COc1ccc(Cn2ccc3nc(C)c(C(=O)Nc4ccc(OC)cc4OC)cc3c2=O)cc1
  HEK293 viab: 11%	3T3 cytotox: ·	HEK293 tox: ·	FLuc inh: ·	GPT2 inhibitor: ·	SNCA expr inhib: -1%

> CC(C)Cn1c(=O)c2ccccc2n2c(CCC(=O)NCc3ccccc3Cl)nnc12
  HEK293 viab: 6%	3T3 cytotox: ·	HEK293 tox: ·	FLuc inh: ·	GPT2 inhibitor: ·	SNCA expr inhib: -30%

> CCN1CCC(N2C[C@@H](COC)[C@H](c3nc(C)no3)C2)CC1
  HEK293 viab: 6%	3T3 cytotox: -6%	HEK293 tox: -11%	FLuc inh: 3%	GPT2 inhibitor: i	SNCA expr inhib: -9%

More compounds:
SMILES,HEK293 viab,3T3 cytotox,HEK293 tox,FLuc inh,GPT2 inhibitor,SNCA expr inhib
CCc1ccccc1NC(=O)c1sc(-n2nc(C)c(Cc3ccc4c(c3)OCO4)c2C)nc1C,18%,·,·,·,·,-13%
COCCCn1c(=N)c(C(=O)NCc2cccnc2)cc2c(=O)n3cc(C)ccc3nc21,?,·,·,·,·,-24%
Cn1cc([C@@H](NC(=O)c2ccc3c(c2)CCCC3)C2CC(O)C2)cn1 (stereo not given in full),-1%,?,i,-4%,i,35%[activator]
CCC(CO)NC(=O)C(=O)Nc1c2c(nn1-c1ccc(F)cc1)CSC2 (stereo not given),-2%,·,·,·,·,8%
COc1cccc(C(=O)N2CCCC2C(=O)N2CCC(N3Cc4ccccc4C3=O)CC2)c1 (stereo not given),-14%,i,3%,·,i,15%
CC(=O)c1cccc(NC(=O)c2sc(-n3nc(C)c(Cc4ccccc4)c3C)nc2C)c1,8%,·,·,·,·,16%
CC(=O)N1c2ccc(S(=O)(=O)NCc3ccc(Cl)cc3)cc2CC1C (stereo not given),?,·,·,·,·,-3%
CCCn1c(=N)c(C(=O)NCc2cccnc2)cc2c(=O)n3cc(C)ccc3nc21,?,·,·,·,·,-13%
Cc1noc([C@@H]2CN(C(=O)CN3CCCCCC3)C[C@H]2CO)n1,2%,-4%,4%,3%,-15%,-9%
COc1cccc(CNC(=O)Cn2c(=O)cc(C(F)(F)F)c3c(C)nn(C)c32)c1OC,4%,·,·,·,·,6%
Cc1ccc(Cl)cc1NC(=O)C(C)n1nc(-c2ccccc2)ccc1=O (stereo not given),0%,·,·,·,·,2%
Cc1ccc(C)c(NC(=O)C(CC(C)C)N2Cc3ccccc3C2=O)c1 (stereo not given),?,·,·,·,·,4%
CCCCC(=O)N1C[C@@H](CO)[C@H](c2nc(C)no2)C1,7%,i,i,-5%,-30%,-11%
O=C(NCc1cccnc1)c1nc(-c2ccc(Cl)nc2)c2cnccn12,14%,-19%,i,·,i,7%
Cc1ccc(-n2c3c(c(=O)[nH]c2=O)C(NS(=O)(=O)c2ccc(C)cc2)(C(F)(F)F)C(=O)N3)cc1 (stereo not given),8%,·,·,·,·,0%
CCOC(=O)c1c(NC(=O)c2ccccc2OCC)sc2c1CCC(CC)C2 (stereo not given),0%,·,·,·,·,-6%
CC(C)NC(=O)c1nc(-c2ccc(Cl)nc2)c2ccccn12,-17%,35µM*,?,·,-15%,27%
O=C(c1ccccc1Cl)N1CCC(n2c(=O)[nH]c3ccccc32)CC1,-15%,i,-17%,·,-15%,?
COc1ccc(-c2cc(C(F)(F)F)nc(NCCc3ccccc3)n2)cc1,9%,·,·,·,·,7%
Cc1ccc(-n2c3c(c(=O)[nH]c2=O)C(NC(=O)c2ccccc2C)(C(F)(F)F)C(=O)N3)cc1 (stereo not given),2%,·,·,·,·,-2%
Cc1ccc(-n2c(SCc3cccc(F)c3)nc3[nH]ncc3c2=O)cc1C,-24%,·,·,·,·,-9%

Screening results from PubChem BioAssay.

These rows are one share of the data. The share of hits here may be higher or lower than overall.
